Assay outcomes deposited in PubChem by several laboratories.
RecA intein inh: Mtb RecA intein splicing inhibition; actives 0.75% (n = 290,000); cell-free RecA intein splicing, fluorescence; inhibition, %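 (about 9 µM by stock and volumes)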; AID 2221; P9WHJ3; in the data active means inhibition above about 30%; inconclusive means no clear call, values can overlap the other calls;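 further: 0% = vehicle wells and 100% = reference inhibitor control wells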
Target sequence (P9WHJ3 whole entry, looked up): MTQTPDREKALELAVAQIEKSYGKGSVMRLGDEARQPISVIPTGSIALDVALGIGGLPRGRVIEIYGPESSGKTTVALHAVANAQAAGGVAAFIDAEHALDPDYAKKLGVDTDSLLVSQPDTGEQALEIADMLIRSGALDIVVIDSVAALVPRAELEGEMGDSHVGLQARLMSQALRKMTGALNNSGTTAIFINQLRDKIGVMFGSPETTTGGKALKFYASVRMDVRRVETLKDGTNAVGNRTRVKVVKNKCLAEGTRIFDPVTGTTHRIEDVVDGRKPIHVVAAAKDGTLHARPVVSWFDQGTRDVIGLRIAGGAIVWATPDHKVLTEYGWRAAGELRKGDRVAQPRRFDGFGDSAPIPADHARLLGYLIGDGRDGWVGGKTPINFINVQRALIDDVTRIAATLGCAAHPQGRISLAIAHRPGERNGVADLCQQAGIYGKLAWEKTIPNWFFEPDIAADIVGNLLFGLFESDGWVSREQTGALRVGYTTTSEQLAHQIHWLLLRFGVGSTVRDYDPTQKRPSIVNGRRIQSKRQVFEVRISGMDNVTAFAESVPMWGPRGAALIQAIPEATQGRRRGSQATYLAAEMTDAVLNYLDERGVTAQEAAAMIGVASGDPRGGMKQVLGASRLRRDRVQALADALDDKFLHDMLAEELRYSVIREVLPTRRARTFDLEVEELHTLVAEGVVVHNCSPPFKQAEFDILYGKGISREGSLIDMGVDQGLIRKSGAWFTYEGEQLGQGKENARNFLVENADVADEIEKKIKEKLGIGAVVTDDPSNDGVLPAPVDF
YopH inh: inhibitors of Yersinia enterocolitica YopH tyrosine phosphatase. fluorescence Ex485/Em525. inhibition, %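 (about 10 µM by stock and volumes)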. AID 898. actives 0.16% (n = 140,000);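 active means inhibition of 50% or more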;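 further: controls were vehicle for no effect and minimum signal wells for full effect; inactives centre near -20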
Mtb growth: M. tuberculosis H37Rv growth inhibitors, H37Rv strain (AID 1626). M. tuberculosis H37Rv growth inhibition; higher % means a stronger effect. one-dose inhibition, % at 10 µM; IC50 in µM for titrated hits. actives 0.95% (n = 220,000);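 active means confirmed in a dose series; inconclusive means inhibition above 80% but not taken into the dose series; inactive means below 80% or under 30% at every dose of the series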;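 further: bacteria incubated seven days before Alamar blue readout; 0% = bacteria only wells and 100% = bacteria with antibiotic wells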
Mtb betalactam: beta-lactam sensitization of Mtb H37Rv | inhibition, % at 25 µM | actives 0.27% (n = 330,000) | M. tuberculosis H37Rv growth with meropenem, percent inhibition; hits of this screen are not shown here | AID 434955;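 active means about 74% or more and at least 40 points above the plate without the antibiotic, then above 30% in a dose series; inconclusive means first-round hits that could not be retested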;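 further: growth measured after seven days incubation then overnight dye step; 0% = bacteria only wells and 100% = bacteria with antibiotic; twin plates without the antibiotic show which effects depend on it; some results filed as inactive read as strong as hits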
Arbovirus anti: arbovirus infection inhibition; arbovirus infection cell-based antiviral screen; inhibition, % at 10 µM; actives 0.37% (n = 200,000); AID 1251;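 active means inhibition from about 30%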;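 further: bluetongue infection of BSR cells; cell survival read as ATP light after 72 h; 0% = infected wells without compound and 100% = uninfected wells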
Arbovirus anti repeat: also measured in Arbovirus anti; calls as there; inhibition, %; measured here: 10K subset replicate screen; many hits read low in the repeat;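 first of two repeat runs on a subset; 0% = infected and 100% = uninfected wells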
Active calls of the source: *; u = inconclusive; x = not tested or not shown. An excerpt (hit frequency here may not be typical).

Start of the data: the first seven entries as a preview:
SMILES	RecA intein inh	YopH inh	Mtb growth	Mtb betalactam	Arbovirus anti	others
Cc1ccc(NC(=O)CSCC(=O)Nc2ccc(S(=O)(=O)N3CCCC3)cc2)cc1	1.5	x	x	-12	x
Cc1cccc(N(C)C(=O)c2cc(S(=O)(=O)N3CCCCC3)c[nH]2)c1	0.8	x	x	-5	x
CCOCCn1c(CN(Cc2ccccc2)Cc2ccccc2)nc2c1c(=O)[nH]c(=O)n2C	1.5	-19	6%	x	0
CCCCOc1nc(N2CCOCC2)nc(C)c1[N+](=O)[O-]	2.0	x	5%	4	x
COc1ccccc1CN1CCN(C(=O)COc2cccc(C)c2)CC1	-1.8	-10	-7%	-12	10
COc1ccccc1NC(=O)CCS(=O)(=O)c1cc2c(cc1Cl)NC(=O)CO2	0.7	x	x	6	x
CC1=C(C(N)=O)C(c2ccc(Cl)c(Cl)c2)n2ncnc2N1 (stereo not drawn)	1.5	x	x	-6	x

This part in full, from the start:
SMILES	RecA intein inh	YopH inh	Mtb growth	Mtb betalactam	Arbovirus anti	others
Cc1ccc(NC(=O)CSCC(=O)Nc2ccc(S(=O)(=O)N3CCCC3)cc2)cc1	1.5	x	x	-12	x
Cc1cccc(N(C)C(=O)c2cc(S(=O)(=O)N3CCCCC3)c[nH]2)c1	0.8	x	x	-5	x
CCOCCn1c(CN(Cc2ccccc2)Cc2ccccc2)nc2c1c(=O)[nH]c(=O)n2C	1.5	-19	6%	x	0
CCCCOc1nc(N2CCOCC2)nc(C)c1[N+](=O)[O-]	2.0	x	5%	4	x
COc1ccccc1CN1CCN(C(=O)COc2cccc(C)c2)CC1	-1.8	-10	-7%	-12	10
COc1ccccc1NC(=O)CCS(=O)(=O)c1cc2c(cc1Cl)NC(=O)CO2	0.7	x	x	6	x
CC1=C(C(N)=O)C(c2ccc(Cl)c(Cl)c2)n2ncnc2N1 (stereo not drawn)	1.5	x	x	-6	x
O=C1C2C3C=CC(C3)C2C(=O)N1c1ccc2c(c1)OCO2 (stereo not drawn)	3.2	-31	-2%	7	-1
C[C@@H](C(=O)Nc1ccc2ccccc2c1)[C@H]1C[C@]1(C)[C@H](NS(=O)(=O)c1ccc(-c2ccccc2)cc1)c1ccccc1	x	-10	7%	-4	5
CCN1C(=O)N[C@@H](c2ccccc2)[C@@H](C(=O)OC)[C@H]1C	-2.0	x	-13%	-8	x
Clc1ccc(OCc2cn3ccccc3n2)c2ncccc12	2.0	x	-6%	100	-5
Cc1nc2ccccc2n1CC(O)Cn1c(C(F)(F)F)nc2ccccc21 (stereo not drawn)	1.2	-4	0%	-8	7
CCn1c(SCC(=O)Nc2cc(C(C)(C)C)nn2-c2ccccc2)nnc1-c1cccs1	0.6	-43	2%	3	5
C=CCSc1nnc(C)c(/C=C/Nc2ccc(Cl)cc2)n1	-6.0	x	9%	-2	-5
COc1ccc(Cc2nc3ccc(C(=O)N(C)C(C)c4nccs4)cc3o2)cc1 (stereo not drawn)	2.0	x	x	-9	x
CCOc1ccc(C(=O)OCCN(C)C)cc1	-1.8	6	1%	-9	11
CCCC(CCC(=O)Nc1ccc(C(=O)OC)cc1)C(=O)O (stereo not drawn)	1.4	-16	-2%	-2	-2
Cc1ccccc1/C=N/NC(=O)c1cccnc1	-3.3	x	x	-3	x
Cc1cccc(NC(=S)N(Cc2ccc(Br)cc2)Cc2ccc(C(=O)O)cc2)c1	1.8	x	0%	5	7
COc1ccc(C[C@H]2CN3C(=NC[C@H]3Cc3ccccc3)N2CCNC(=O)CCC2CCCCC2)cc1	9.7	x	11µM*	100	-22
O=C(NN=C1CCCCCC1)c1cn(-c2ccccc2)nc1-c1ccccc1	-0.2	-10	10%	1	-15
CCNc1nc(NC(C)C)nc(Oc2ccc(/C=N/O)cc2)n1	-0.6	-26	-7%	-1	-1
O=C(CSc1nc2c(cnn2-c2ccc(F)cc2)c(=O)[nH]1)N1N=C(c2cccs2)CC1c1ccc(F)cc1 (stereo not drawn)	x	-21	19%	x	-33
O=C(OCC(=O)N1CCOCC1)c1ccc(N2CCOCC2)c([N+](=O)[O-])c1	0.4	x	-1%	-9	5

Some of these compounds in order of number of heavy atoms, lowest first:
SMILES	RecA intein inh	YopH inh	Mtb growth	Mtb betalactam	Arbovirus anti	others
Cc1ccccc1/C=N/NC(=O)c1cccnc1	-3.3	x	x	-3	x
O=C(OCC(=O)N1CCOCC1)c1ccc(N2CCOCC2)c([N+](=O)[O-])c1	0.4	x	-1%	-9	5
O=C(NN=C1CCCCCC1)c1cn(-c2ccccc2)nc1-c1ccccc1	-0.2	-10	10%	1	-15
Cc1cccc(NC(=S)N(Cc2ccc(Br)cc2)Cc2ccc(C(=O)O)cc2)c1	1.8	x	0%	5	7
COc1ccc(C[C@H]2CN3C(=NC[C@H]3Cc3ccccc3)N2CCNC(=O)CCC2CCCCC2)cc1	9.7	x	11µM*	100	-22

The results go on.
SMILES	RecA intein inh	YopH inh	Mtb growth	Mtb betalactam	Arbovirus anti	others
N#Cc1ccc(-c2nc3ccccc3c(=O)n2O)cc1	-2.6	x	x	21	x
C=CCn1c(SCC(=O)N(C)c2c(N)n(Cc3ccccc3)c(=O)[nH]c2=O)nnc1-c1ccccc1OC	-0.6	x	x	-22	x
NC(=O)Nc1ccc(C(=O)OCC(=O)NC2CCCCC2)cc1	0.8	x	-5%	-3	4
O=C(/C=C/c1ccc(F)cc1)NC(=S)NNC(=O)c1cccnc1	0.1	-25	-1%	2	-7
O=C(CSc1nnc(-c2cccs2)n1-c1ccccc1)NCc1ccco1	2.8	-52	-5%	3	4
CC(=O)C1=C(C)NC(=O)CC1c1ccccc1Cl (stereo not drawn)	4.2	x	13%	5	0
CCC(=O)c1ccccc1OCCCN1C(=O)NC(C)(C)C1=O	-3.0	-9	3%	-6	2
Clc1ccc(Sc2cc(Cl)c(-c3ccccc3)nn2)cc1	18	-26	20%	18	-2
COc1ccc(CN(Cc2cccn2C)S(=O)(=O)c2ccc(F)cc2)cc1	0.1	x	2%	1	x
CC1=C(C(=O)Nc2ccc(C(=O)NCCCN3CCCCC3)cc2)SCCO1	1.1	x	x	4	x
Cc1ccccc1CN1CCN(CC(=O)NCc2ccco2)C1=O	x	11	-5%	-3	5
O=C(O)/C=C/C(=O)NCCC(c1ccccc1)c1ccccc1	-0.4	x	3%	-3	x
COc1cc(/C=C2/C(=O)NN(c3cccc(Cl)c3)C2=O)cc(OC)c1O	9.5	x	x	47	x
COc1ccc(C(=O)N2CCC(O)(c3ccc(F)cc3)CC2)cc1OC	0.3	-1	-4%	-1	11
COc1cc(-n2ccnc2SC)c(Cl)cc1Cl	3.6	-17	1%	-6	-1
Cc1cc(NCCCN2CCOCC2)n2nc(C)c(-c3ccccc3)c2n1	0.6	-24	2%	-8	-27
CCC(=O)Nc1ccccc1N1CCN(c2ccc(F)cc2)CC1	1.1	x	x	-2	x
COC(=O)c1ccccc1NC(=O)NCC1CCCO1 (stereo not drawn)	x	-31	0%	10	2
CC(C)(C)OC(=O)N/N=C/c1ccc(N2CCOCC2)s1	-2.6	-7	-5%	-10	-4
COc1cccc(NC(=O)Nc2nnc(CC(=O)NCc3ccccc3)s2)c1	-0.3	x	-11%	-3	x
CC(Oc1cc2oc(=O)cc(-c3ccccc3)c2cc1Cl)C(=O)NCC1CCC(C(=O)O)CC1 (stereo not drawn)	-0.2	x	x	-3	x
Cc1ncc(CSc2nnnn2-c2ccccc2)c(N)n1	1.3	-2	1%	3	-1
O=C(CCCCCn1c(=S)[nH]c2ccc(N3CCOCC3)cc2c1=O)NCCc1ccccc1	-5.2	-13	7%	u	-13
O=C(c1ccccc1)N1CCCCC(S(=O)(=O)c2ccccc2)C1=O (stereo not drawn)	0.6	-50	-5%	1	6
Cc1ccccc1NC(=O)C(=O)NCCCN1CCCC1=O	-0.1	x	x	-1	x
CCCCN(C)CCNC(=O)Cn1ncc2c(=O)oc3ccc(C)cc3c21	0.6	-23	4%	-13	2	Arbovirus anti repeat=10
CC(C)(C)CC(=O)Nc1cc2c3c(c1)CCN3C(=O)CC2	-3.5	x	x	-1	x
O=C(Nc1cccc(F)c1)C1CC(=O)N(c2ccc(Br)cc2)C1 (stereo not drawn)	4.2	-19	-6%	53	1
CCC(=O)n1nc(-c2ccco2)nc1N	6.9	-16	5%	-7	0
O=C(CNC(=O)C1CCCCC1)OCC(=O)c1ccc(Cl)s1	-0.6	x	-1%	-3	17
Cn1cc(CN2CCCC(C(=O)c3ccc(-c4ccccc4)cc3)C2)cn1 (stereo not drawn)	0.1	x	-1%	-6	-38
Clc1cccc(-c2nnc(-c3ccno3)o2)c1	0.6	x	-3%	0	x
COC(=O)c1cc2ccsc2n1CC(=O)Nc1cc(Cl)ccc1OC	x	-27	0%	-4	-19
Cc1ccc(OCC(=O)Nc2cc(NC(=O)COc3ccc(C)cc3)cc(C(=O)O)c2)cc1	2.2	x	x	-2	x
Cc1ccccc1S(=O)(=O)c1c(C)cc(-c2ccccc2)[nH]c1=O	-0.2	-51	-3%	-8	0
O=C(CN1CCN(C2CCCCC2)CC1)Nc1ccc(Br)cc1	-3.1	x	-8%	11	-19
COc1ccccc1C(CNC(=O)CSc1ccc2ccccc2c1)N(C)C (stereo not drawn)	-0.2	x	x	-3	x
CCC/C=N/Nc1nnc(Cc2ccccc2)c(=O)[nH]1	-2.6	x	x	0	x
Cc1ccc(C(=O)CSc2nc(-c3ccccc3)cc(=O)[nH]2)cc1	2.1	x	-7%	9	7
COC(=O)c1ccc(Sc2ccccc2NS(=O)(=O)c2ccc(C)cc2)nc1	-2.7	-34	-13%	-4	-2
Cc1ccc(NC(=S)N(CCCN2CCOCC2)Cc2ccco2)cc1Cl	-0.4	0	5%	-2	7
CC1=CC(C)(C)n2c(O)c(N=NC(N)=S)c3c(C)c(C)cc1c32	-2.9	x	8%	-8	x
COc1ccc2nc(N3C(=O)CNC3=S)sc2c1	0.0	x	u	59	x
Cc1onc(-c2c(F)cccc2Cl)c1-c1nnc(-c2ccc(C(F)(F)F)cc2)o1	3.1	x	x	3	x
CCCCNC(=O)CNC(=O)c1cccs1	-1.1	-24	2%	-2	2
O=C(CSc1nc(=O)n(CCCN2CCOCC2)c2c1CCCC2)Nc1cccc([N+](=O)[O-])c1	0.3	x	x	-9	x
Cc1ccc2[nH]c(=O)c(CN(Cc3cccs3)S(=O)(=O)c3ccc4c(c3)OCCO4)cc2c1	-5.5	-23	-3%	4	-6
CC1CC(C)CN(S(=O)(=O)c2ccc3c(c2)CC(C)N3C(=O)C2CC2)C1 (stereo not drawn)	-3.2	x	x	1	x
O=S(=O)(NCCSCc1ccc(Cl)cc1Cl)c1ccc2c(c1)OCCO2	2.2	-33	-8%	-2	-35
CCCOc1ccc(C(=O)NNC(=S)NC(=O)c2ccccc2[N+](=O)[O-])cc1	9.5	x	x	71	x
CCC(Oc1ccccc1)C(=O)Nc1nnc(S(=O)(=O)Nc2ccccc2)s1 (stereo not drawn)	3.2	x	x	19	x
Cn1c2ccccc2c2c(C(=O)N3CCN(c4ccccc4)CC3)cn(C3CCCC3)c(=O)c21	x	-12	-6%	-2	-13
